HIV Env fusion: inhibitors of HIV Env-mediated cell fusion; HeLa-JRFL Env/CEM21 cell fusion, luciferase; inhibition, % at 12.3 µM; actives 1.1% (n = 360,000);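 active = mean replicate inhibition score of at least 50 and every replicate individually at or above 50; inconclusive = only one of the two criteria met; inactive = mean below 50 and not all replicates reaching 50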;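 also: 0% = plate neutral controls and 100% = maraviroc near 300 nM; one replicate is shown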
* hit, by the source's call; ? = inconclusive; & = joins results of further samples; [ ] = dose if it differs, or a comment.

Structure | HIV Env fusion
Cc1noc(C)c1S(=O)(=O)N(C)C[C@@H]1OCc2ccccc2-c2ccccc2C(=O)N([C@@H](C)CO)C[C@H]1C | 29[16.7 µM]
C/C=C/c1ccc2c(c1)O[C@H](CN(C)C(=O)C1CCCCC1)[C@@H](C)CN([C@@H](C)CO)S2(=O)=O | 8[16.7 µM]
COc1ccc(NC(=O)N(C)C[C@@H]2OCc3ccccc3-c3c(n(C)c4ccccc34)C(=O)N([C@H](C)CO)C[C@@H]2C)c(OC)c1 | -22[16.7 µM]
C[C@H]1CN([C@@H](C)CO)C(=O)c2cccc(NS(C)(=O)=O)c2O[C@H]1CN(C)Cc1ccc2c(c1)OCO2 | 11[16.7 µM]
OC(c1ccccc1)(c1ccccc1)C1CCN(CCCOc2cccc(C(F)(F)F)c2)CC1 | 7
CCC(=O)N1C[C@@H](C)[C@@H](OC)CN(C)C(=O)c2ccc(NC(=O)c3ccccc3)cc2OC[C@H]1C | -11[16.7 µM]
CC1(C)OC(=O)C2=C(CC(CCc3ccccc3)OC2c2ccc(Cl)c(Cl)c2)O1 (stereo not given) | 6
C/C=C/c1cccc(-c2nc(C(=O)NCc3ccc(OC)cc3)cc3c2[C@@H](CCO)N([S@](=O)C(C)(C)C)C3)c1 | -5[16.7 µM]
CC(C)NC(=O)Nc1ccc2c(c1)C(=O)N(C)[C@@H]1CC[C@@H](CC(=O)NCc3ccc(F)cc3)O[C@H]1CO2 | -11[16.7 µM]
CN1[C@@H]2Cn3c(ccc(/C=C/c4ccccc4)c3=O)[C@H]1[C@@H](C(=O)NC1CCCCC1)[C@@H]2CO | 26[16.7 µM]
C[C@@H]1CN([C@H](C)CO)S(=O)(=O)c2ccc(C#CCN(C)C)cc2O[C@H]1CN(C)S(=O)(=O)c1cccc(F)c1 | 10[16.7 µM]
CO[C@@H]1CN(C)C(=O)c2cc(NS(=O)(=O)CC(F)(F)F)ccc2OC[C@@H](C)N(CC2CCCCC2)C[C@@H]1C | -44[16.7 µM]
CNC[C@@H]1Oc2ncc(C#Cc3ccccc3F)cc2C(=O)N([C@@H](C)CO)C[C@@H]1C | -9[16.7 µM]
CCOC(=O)[C@@H]1CSCCS(=O)(=O)N1C(=O)[C@H](CC(C)C)NC(=O)OC(C)(C)C | -12
O=C(NCCN1CCCCC1)[C@@H]1[C@@H](CO)[C@@H]2Cn3c(cccc3=O)[C@@H]2N1Cc1ccccn1 | 6[16.7 µM]
CCCN1[C@@H]2c3ccc(-c4ccccc4OC)c(=O)n3C[C@@H]2[C@@H](CO)[C@@H]1C(=O)Nc1nccs1 | 0[16.7 µM]
CO[C@@H]1CN(C)C(=O)c2cc(NC(=O)Nc3ccc4c(c3)OCO4)ccc2OC[C@@H](C)N(C(C)=O)C[C@H]1C | 6[16.7 µM]
C[C@H](NC(=O)[C@H]1N[C@H]2c3ccc(C4=CCCC4)c(=O)n3C[C@H]2[C@@H]1CO)c1ccccc1 | 0[16.7 µM]
CCCC(O)C#Cc1cnc2c(c1)C(=O)N([C@H](C)CO)C[C@H](C)[C@H](CN(C)Cc1ccc(F)cc1)O2 (stereo not given in full) | 11[16.7 µM]
COc1ccc(NC(=O)Nc2ccc3c(c2)[C@H]2C[C@H](CC(=O)NCc4ccccn4)O[C@@H](CO)[C@H]2O3)cc1 | 2[16.7 µM]
C[C@@H]1CN([C@@H](C)CO)C(=O)c2cc(NC(=O)c3ccncc3)ccc2O[C@@H](C)CCCCO[C@H]1CN(C)Cc1ccc(C(F)(F)F)cc1 | -5[16.7 µM]
O=C(C[C@@H]1C[C@H]2c3cc(NC(=O)CC4CC4)ccc3O[C@H]2[C@@H](CO)O1)NCC1CC1 | -6[16.7 µM]
COc1ccc(S(=O)(=O)N(C)C[C@@H]2Oc3ccc(NC(=O)Nc4cccc5ccccc45)cc3CC(=O)N([C@H](C)CO)C[C@@H]2C)cc1 | 20[16.7 µM]
CC(C)NC(=O)N(C)C[C@@H]1OCCCC[C@H](C)Oc2ccc(NC(=O)C3CCCCC3)cc2C(=O)N([C@@H](C)CO)C[C@@H]1C | -21[16.7 µM]
CCCCc1nnn2c1C1c3cc(-c4cccnc4)ccc3CCN1C(=O)C2 (stereo not given) | 7
C[C@@H](NC(=O)C[C@@H]1CC[C@H]2[C@@H](COc3ccc(NS(=O)(=O)c4ccc(Cl)cc4)cc3C(=O)N2C)O1)c1ccccc1 | 2[16.7 µM]
C[C@H]1CN([C@@H](C)CO)C(=O)c2cccc(NC(=O)Nc3ccccc3)c2O[C@@H]1CN(C)S(=O)(=O)c1cccs1 | 13[16.7 µM]
O=C(C[C@@H]1CC[C@@H](NC(=O)C2CCC2)[C@@H](CO)O1)NCC1CC1 | -16[16.7 µM]
C[C@@H]1CN([C@@H](C)CO)C(=O)Cc2cc(NC(=O)CCCCCC(=O)Nc3ccccc3N)ccc2O[C@H]1CN(C)C(=O)Nc1ccc(F)cc1 | -29[16.7 µM]
CO[C@H]1CN(C)C(=O)c2cc(NC(=O)C3CC3)ccc2OC[C@@H](C)N(C(=O)c2cccnc2)C[C@@H]1C | -8[16.7 µM]

Structure | HIV Env fusion
CN(C)CCCNC(=O)[C@@H]1[C@@H](CO)[C@@H]2Cn3c(ccc(C4=CCCC4)c3=O)[C@@H]2N1CCC(F)(F)F | 13[16.7 µM]
O=C(NCc1ccccc1)[C@H]1CCCN1C(=O)[C@H]1CCCN1C(=O)c1ccc(Cl)cc1 | 19
C[C@H](CO)N1C[C@H](C)[C@@H](CN(C)CC2CC2)OCCCC[C@H](C)Oc2ccc(NS(=O)(=O)c3ccccc3)cc2C1=O | -15[16.7 µM]
COc1ccc(NC(=O)Nc2ccc3c(c2)[C@@H]2C[C@@H](CC(=O)NC4CCCCC4)O[C@H](CO)[C@@H]2O3)cc1 | 7[16.7 µM]
CN1CCN(C(=O)C[C@H]2CC[C@@H]3[C@H](COC[C@@H](O)CN3C(=O)Cc3ccccc3)O2)CC1 | 0[16.7 µM]
CO[C@H](CN(C)S(=O)(=O)c1ccc(Cl)cc1)[C@H](C)CN([C@@H](C)CO)S(=O)(=O)c1cccc(Cl)c1 | 61*[16.7 µM]
CCC(=O)N1C[C@H](O)COC[C@H]2O[C@H](CC(=O)NC)CC[C@@H]21 | -3[16.7 µM]
CO[C@@H]1CN(C)C(=O)c2ccc(NS(=O)(=O)c3ccccc3)cc2OC[C@H](C)N(Cc2cccnc2)C[C@@H]1C | 2[16.7 µM]
CN1C(=O)c2cc(NC(=O)c3cccc(F)c3)ccc2OC[C@@H]2O[C@H](CC(=O)NCC3CCCCC3)CC[C@H]21 | 12&32[16.7 µM]
COC(=O)C1=C(C)N(C)C(=NCc2ccc3c(c2)OCO3)NC1c1ccc(F)cc1 (stereo not given) | 16
O=C(Cc1ccncc1)NCC[C@@H]1CC[C@@H](NC(=O)C2CCC2)[C@H](CO)O1 | -4[16.7 µM]
COc1cccc(C(=O)Nc2ccc3c(c2)C(=O)N(C)C[C@@H](OC)[C@@H](C)CN(C(C)=O)[C@@H](C)CO3)c1 | 2[16.7 µM]
COc1cccc(C(=O)N[C@@H](Cc2cccnc2)C(=O)N2CCC[C@H]2C(=O)NCCc2ccccc2Cl)c1 | 4
CO[C@H](CN(C)S(=O)(=O)c1cccc(Cl)c1)[C@H](C)CN([C@H](C)CO)S(=O)(=O)c1ccc(Cl)cc1 | 45[16.7 µM]
CCCNC(=O)N1C[C@H](O)COC[C@@H]2O[C@@H](CC(=O)N3CCC(Cc4ccccc4)CC3)CC[C@H]21 | 4[16.7 µM]
O=C(O)CCCCN1C(=O)C=CC1=O | -5
COc1ccccc1S(=O)(=O)N(C)C[C@H]1OCc2ccccc2-c2c(n(C)c3ccccc23)C(=O)N([C@H](C)CO)C[C@@H]1C | 10[16.7 µM]
CCc1cc2c(nc1CC)CCCN2S(=O)(=O)c1ccc(C(F)(F)F)cc1 | 12
CNC[C@H]1Oc2ccc(NS(=O)(=O)c3ccc(F)cc3)cc2C(=O)N([C@H](C)CO)C[C@H]1C | -4[16.7 µM]
O=C1N[C@H](c2ccccc2)COCc2cn(nn2)CC[C@@H]1Cc1ccccc1 | 10[16.7 µM]
CO[C@H]1CC[C@H]2CCOc3c(C#N)cccc3C(=O)N(C)C[C@@H](OC)[C@@H](C)C(=O)N(C)C[C@H]1O2 | -18[16.7 µM]
COc1ccc2c3c([nH]c2c1)[C@@H](CO)N(C(=O)Nc1cccc(F)c1)CC31CN(CC2CCOCC2)C1 | 10[16.7 µM]
COc1ccc(NC(=O)Nc2ccc3c(c2)[C@@H]2C[C@H](CC(=O)N4CCN(C)CC4)O[C@H](CO)[C@@H]2O3)cc1 | 5[16.7 µM]
CN(C)C(=O)[C@@H]1[C@@H](CO)[C@@H]2Cn3c(ccc(C4=CCCCC4)c3=O)[C@@H]2N1Cc1ccccn1 | 11[16.7 µM]
C[C@H](CO)N1C[C@H](C)[C@@H](CN(C)C(=O)c2ccncc2)OCCCC[C@H](C)Oc2ccc(N(C)C)cc2C1=O | -9[16.7 µM]
CC(C)(C)[S@@](=O)N1Cc2cc(C(=O)NCc3ccccc3F)nc(-c3cccc(-c4cccnc4)c3)c2[C@H]1CCO | 1[16.7 µM]
C[C@H](NC(=O)C[C@@H]1C[C@H]2c3cc(N(C)C)ccc3O[C@H]2[C@H](CO)O1)c1ccccc1 | -4[16.7 µM]
Cc1ccccc1C(=O)N[C@H](C(=O)N1CCC[C@H]1C(=O)NCCc1ccccc1Cl)C(C)C | -31
CN(CCc1ccccn1)C(=O)[C@@H](Cc1ccccc1)NC(=O)[C@H]1O[C@@H](n2ccc(=O)[nH]c2=O)[C@H](O)[C@@H]1O | -13
CCCNC(=O)Nc1ccc2c(c1)OC[C@H](C)N(C(=O)C1CCOCC1)C[C@@H](C)[C@H](OC)CN(C)C2=O | 11[16.7 µM]

7 entries out of the list above, arranged by the value under HIV Env fusion, low to high.
| smiles | HIV Env fusion |
| --- | --- |
| Cc1ccccc1C(=O)N[C@H](C(=O)N1CCC[C@H]1C(=O)NCCc1ccccc1Cl)C(C)C | -31 |
| CN(CCc1ccccn1)C(=O)[C@@H](Cc1ccccc1)NC(=O)[C@H]1O[C@@H](n2ccc(=O)[nH]c2=O)[C@H](O)[C@@H]1O | -13 |
| O=C(O)CCCCN1C(=O)C=CC1=O | -5 |
| COc1cccc(C(=O)N[C@@H](Cc2cccnc2)C(=O)N2CCC[C@H]2C(=O)NCCc2ccccc2Cl)c1 | 4 |
| CCc1cc2c(nc1CC)CCCN2S(=O)(=O)c1ccc(C(F)(F)F)cc1 | 12 |
| COC(=O)C1=C(C)N(C)C(=NCc2ccc3c(c2)OCO3)NC1c1ccc(F)cc1 (stereo not given) | 16 |
| O=C(NCc1ccccc1)[C@H]1CCCN1C(=O)[C@H]1CCCN1C(=O)c1ccc(Cl)cc1 | 19 |

Other structures follow.
Compound	HIV Env fusion
COC(=O)C[C@H]1CC[C@H]2[C@@H](COc3ccc(NS(=O)(=O)c4ccccc4F)cc3C(=O)N2C)O1	7[16.7 µM]
COC(=O)Cc1nnn2c1[C@H](C)[C@@H](OC)c1ccccc1-2	6
CC=Cc1ccc2n(c1=O)C[C@H]1[C@H](CO)[C@@H](C(=O)OC)N(CCc3ccccc3)[C@@H]21 (mixture of isomers)	60*[16.7 µM]
CC(C)(C)[S@@](=O)N1Cc2cc(C(=O)NCCN3CCCC3)nc(-c3cccc(-c4cccc(C#N)c4)c3)c2[C@H]1CCO	-5[16.7 µM]
Cc1cccc(NC(=O)Nc2ccc3c(c2)C(=O)N(C)[C@@H]2CC[C@H](CC(=O)NCc4ccccc4Cl)O[C@H]2CO3)c1	8[16.7 µM]
CCCC(=O)Nc1ccc2c(c1)C(=O)N(C)C[C@@H](OC)[C@H](C)CN(Cc1ccccc1C(=O)O)[C@H](C)CO2	3[16.7 µM]
COCCNC(=S)N(C)[C@H]1C[C@H]2c3[nH]c4c(-c5ccccc5)cccc4c3CCN2C(=O)[C@H]1[C@H](C)O	-29
CC(C)(C)C(c1nc2ccccc2[nH]1)n1c(Cc2csc3ccccc23)nc2ccccc21 (stereo not given)	-4
C/C=C/c1ccc2c(c1)O[C@H](CN(C)C(=O)C1CCC1)[C@H](C)CN([C@H](C)CO)S2(=O)=O	?
Cc1ccc(S(=O)(=O)N[C@@H]2CC[C@@H](CC(=O)N3CCc4ccccc4C3)O[C@@H]2CO)cc1	3[16.7 µM]

Compound	HIV Env fusion
O=C(C[C@H]1C[C@H]2c3cc(NC(=O)Nc4ccc(C(F)(F)F)cc4)ccc3O[C@H]2[C@@H](CO)O1)NCc1cc(F)ccc1F	-1[16.7 µM]
CO[C@@H]1CN(C)C(=O)c2ccc(NC(=O)Cc3ccccc3)cc2OC[C@@H](C)N(C(=O)c2ccccc2F)C[C@@H]1C	-80[16.7 µM]
C[C@@H]1CN([C@H](C)CO)C(=O)c2cccc(NS(=O)(=O)c3ccccc3)c2O[C@H]1CN(C)S(=O)(=O)c1cccs1	-28[16.7 µM]
CO[C@H]1CN(C)C(=O)c2ccc(NS(C)(=O)=O)cc2OC[C@H](C)N(Cc2ccccn2)C[C@H]1C	-3[16.7 µM]
C[C@H]1CN([C@@H](C)CO)C(=O)c2cccc(NC(=O)c3cnccn3)c2O[C@@H]1CN(C)S(=O)(=O)c1ccccc1	-2[16.7 µM]
COc1ccc(C[C@H]2CCc3cnnn3COC[C@H](c3ccccc3)NC2=O)cc1	-2[16.7 µM]
CO[C@@H]1CN(C)C(=O)c2cc(NC(C)=O)ccc2OC[C@H](C)N(CC2CCCCC2)C[C@@H]1C	0[16.7 µM]
COc1ccc2c3c(n(C)c2c1)[C@@H](CO)N(C(=O)c1ccccn1)CC31CN(C(=O)c2ccccn2)C1	5[16.7 µM]

From PubChem BioAssay

Not all compounds are listed (hit frequency here may not be typical).
